Assay outcomes as filed in PubChem BioAssay.
NPYLR7 agonist: agonists of mosquito NPYLR7 receptor, primary screen, cell-based, Aedes aegypti, calcium fluorescence, mosquito biting behavior | Aedes aegypti neuropeptide Y-like receptor 7 (NPYLR7) | HEK293T NPYLR7/Galpha15, GCaMP6s calcium fluorescence | activation, % at 10 µM | 0.15% of 270,000 active | AID 1259423, 2018; in the data active = activation above about 40%;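 note: 0% = vehicle and 100% = reference agonist at the receptor; some compounds past the cut are filed as inactive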
NPYLR7 agonist max-min: second read-out of NPYLR7 agonist, no call of its own (marks repeat the call); activation, %; measured here: Max-Min RFU normalised activation; some inactives read as strong as hits;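 span of the calcium signal over five minutes; 0% = vehicle and 100% = native peptide agonist; compound fluorescence can raise it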
* hit, by the source's call; & = joins results of further samples. A portion of the library; count on the stated rates, not on these rows.

SMILES	NPYLR7 agonist	NPYLR7 agonist max-min
COc1ccccc1C(C)CC(=O)NCC1(C(O)c2ccccc2)CC1 (stereo not drawn)	2	2
NC(=O)CNC(c1ccccc1)c1ccc(OC(F)F)cc1 (stereo not drawn)	-8	-9
CCOc1ncnc2c1sc1nc(N3CCOCC3)c3c(c12)CCCC3	3	-1
COc1cccc2sc(N(Cc3cccnc3)C(=O)c3ccc(Br)s3)nc12	-4	-1
COc1ccc(NC(=O)c2cc(-c3ccc(F)cc3OC(C)C)n[nH]2)cn1	-1	-2
O=c1c(Oc2ccccc2Br)coc2c3c(ccc12)OCN(C1CCS(=O)(=O)C1)C3 (stereo not drawn)	3	6
O=C(NCc1ccccc1)c1cc(C2CCCCN2C(=O)OCCF)on1 (stereo not drawn)	5	1
Cc1c(C(=O)CSc2n[nH]c(COc3ccccc3)n2)c(=O)n(-c2ccccc2)n1C	6	0
CCCN[C@H]1CCc2nc(N)sc2C1	-10&3&-8	-16&2&-12
N#Cc1ccc(OS(=O)(=O)c2cccc(F)c2)cc1	3	-2
CN(CC(=O)N1CCCC1)C(=O)/C=C/c1cccc2ccccc12	9	2
CC(C)c1ccc(NC2CCCN(c3nc(C(N)=O)cs3)C2)cc1 (stereo not drawn)	3	1
CCn1c(C2CCCNC2)nn(Cc2ccc(Cl)s2)c1=O (stereo not drawn)	8	4
COc1ccc(S(=O)(=O)N2CCN(c3ccc(C)c(Cl)c3)CC2)cc1OC	2	1
CC(C)c1ccc(CC2(C)C(=O)Nc3ccc(S(=O)(=O)NC4CCCCC4)cc32)cc1 (stereo not drawn)	1	-4
CC(=O)Nc1ccc2nc(NC(=O)c3nn(C)cc3[N+](=O)[O-])sc2c1	-8	-10
CC1(C(=O)NCCc2nc3ccccc3c(=O)[nH]2)CCCCO1 (stereo not drawn)	30	8
CC(C)(C(=O)N1CCC1(C)C(=O)NS(=O)(=O)c1cccc(F)c1)c1ccccc1 (stereo not drawn)	-7	-11
Cc1ccccc1-n1c(Cc2ccccc2)nnc1SCCCCC(=O)NCCc1ccc(Cl)cc1Cl	-1	11
S=c1[nH]nc(NCc2ccco2)s1	1	-3
Cc1ccccc1C(=O)Nc1cccc(-c2ccc(=O)n(C)n2)c1	-3	-3
Cc1cnc(-n2cnnc2)c(-c2cccc(C(C)N3CCCC3)c2)c1 (stereo not drawn)	-2	-4
Cc1cc(=O)n2[nH]c(SCC(=O)N(Cc3ncccc3C)C(C)C)nc2n1	14	-2
CC1(C(=O)NS(=O)(=O)Cc2ccccc2)CCN1C(=O)CC1CC1 (stereo not drawn)	1	1
Cc1cc(C)cc(C(=O)Nn2cnnc2)c1	1	1

Fetched one by one from the list above:
SMILES	NPYLR7 agonist	NPYLR7 agonist max-min
COc1ccc(NC(=O)c2cc(-c3ccc(F)cc3OC(C)C)n[nH]2)cn1	-1	-2
NC(=O)CNC(c1ccccc1)c1ccc(OC(F)F)cc1 (stereo not drawn)	-8	-9

(listing goes on)
SMILES	NPYLR7 agonist	NPYLR7 agonist max-min
CC(C)c1noc(-c2ccc(N3CCN(CC4CC4)CC3)nc2)n1	3	-1
CCCc1[nH]n(-c2ccc(F)cc2)c(=O)c1C1=C([n+]2ccccc2)C(=O)N(c2ccccc2)C1=O	-7	-5
O=S(=O)(c1ccccc1)N1CCN(Cc2ccc(C(F)(F)F)cc2)CC1	1	0
Cc1cc(C)nc(SCc2csc(-c3c(F)cccc3F)n2)n1	1	-2
CCc1ccc(OCc2ccccc2C(=O)Nc2ccc3nc(C)cc(N)c3c2)cc1	0&-10	-6&-14
O=C(NCC1CCCN(CC#Cc2ccccc2)C1)c1ccc(F)cc1 (stereo not drawn)	5	3
CCC1CN(Cc2cnc(OC)nc2)CCC(=O)N1Cc1ccccc1 (stereo not drawn)	8	8
CN(Cc1ccccc1)c1nc(-c2cccc(C(F)(F)F)c2)nc2ccccc12	5	8
COC(=O)[C@@H](NC1CCN(c2ccc(NS(=O)(=O)c3ccccc3)cc2)CC1)c1ccccc1	33	16
CC(C)c1cc(C(=O)N(C)Cc2nccn2Cc2ccccc2)no1	26	18
COC(C)c1ccc(-c2cc(C(=O)N3CCCCC3)ccn2)cc1 (stereo not drawn)	-5	-5
CC1C(=O)N(c2ccc(F)cc2F)CCN1S(=O)(=O)c1ccccc1 (stereo not drawn)	-2	7
Cc1nnc(SCC(=O)NC(=O)NC2CCCCC2)n1C1CCCCC1	2	6
O=S(=O)(c1ccccc1Cl)N1CCC(CCc2ccccc2)CC1	9	12
CC(=O)c1ccc(S(=O)(=O)N2CCN(C(=O)CCC(C)C)CC2)cc1	-1	-5
CCCCOCCOCC(=O)N1CCC(n2nc(C(C)C)cc2C(C)C)CC1	-2	-2
CC(C)C(=O)Nc1c2c(nn1C(C)(C)C)CSC2	-5	-9
CCOC(=O)[C@@H]1CCCC[C@H]1NC(=O)/C=C/c1ccc2c(c1)OCO2	-18	-21
O=C1NCCN(C2CCCC2)C1CC(=O)N1CCN(C(=O)c2ccco2)CC1 (stereo not drawn)	1&1	-3&-1
Oc1ccc(C2=CCN(c3nnc(Br)s3)CC2)cc1	-27	-26
NC(=O)C1CCCN1c1nc(-c2cccs2)nc2ccccc12 (stereo not drawn)	-6	-6
Cc1coc2c1C(=O)C(=O)c1c-2ccc2c(C)cccc12	-9	-12
CNC(=O)c1sc(CN2CCOCC2)nc1C	-1	-8
Cc1nc(SCC(=O)N(CC(C)C)C2CCS(=O)(=O)C2)c2c(C)c(C)sc2n1 (stereo not drawn)	0	3
CCOC(=O)N(C)c1c(CC)nc2ccc(C(=O)NCCCn3ccnc3)cn12	1	1

The listing continues.
SMILES	NPYLR7 agonist	NPYLR7 agonist max-min
CC(C)C(NC(=O)CCCNC(=O)c1ccccc1)c1ccccn1 (stereo not drawn)	2	0
CCCNC(=O)CCCn1ncn2c(cc3occc32)c1=O	-3	-4
O=c1cc(CN2CCC3(CC2)c2ccccc2CC3O)nc2c(O)cccn12 (stereo not drawn)	3	-1
COc1ccc(C=NNC(=O)Cn2nnc3ccccc32)cc1OC	-7	-8
NC1=NC(c2c(O)ccc3ccccc23)C=NN1 (stereo not drawn)	6	5
O=C(O)c1cccc(-c2nccnc2NCc2cccc([N+](=O)[O-])c2)c1	-5	-11
CC1CN(C(c2cccs2)C2Sc3ncnn3C2=O)CC(C)O1 (stereo not drawn)	6	4
C(=NC12CC3CC(CC(C3)C1)C2)c1ccco1	-2	-3
CCC(OC1CCCC1)C(=O)Nc1cccc(C)c1C(=O)NC (stereo not drawn)	5	1
COC(=O)CNC(c1ccccc1)c1cc(C)ccc1NC(=O)c1cccc(Cl)c1 (stereo not drawn)	-9	-13
COc1cccc(OC)c1C(=O)Nc1c(C)nc2ccccn2c1=O	-2	-3
Cc1nc2ccc(CC(=O)N3CCCC(c4ccn[nH]4)C3)cc2[nH]1 (stereo not drawn)	1	1
CC1c2ccsc2CCN1C(=O)C1CCN(S(=O)(=O)c2ccccc2)CC1 (stereo not drawn)	25	8
COc1ccc(C(=O)NCc2cccnc2N2CCOCC2)cc1F	15	9
O=C(CSc1nc(=O)n(CCCO)c2c1CCCC2)Nc1ccc2c(c1)OCO2	3	-6
COCCCN(CC(=O)N(CCc1c[nH]c2ccccc12)Cc1ccc(C(F)(F)F)cc1)C(=O)Nc1ccccc1F	-3	-10
O=C(NC1CCN(c2ccccc2C(=O)NCC2CCCCC2)CC1)c1cccs1	19	20
COCCOc1ccc(-n2nc(C)c(C(=O)O)n2)cc1	0	-5
Brc1ccc2nc(Nc3ccccn3)nc(-c3ccccc3)c2c1	21	9
COc1ccc(-n2nc(-c3ccc(Cl)cc3)cc2NC(=O)c2cc(F)cc(C(F)(F)F)c2)cc1	22	14
O=C(Nc1ccc2cn[nH]c2c1)c1ccc(CN2CCCC(O)C2)cc1 (stereo not drawn)	-6	-10
Cc1cc(=O)n2nc(N3CCCC3C(=O)NCCCN3CCCC3)sc2n1 (stereo not drawn)	5	6
CCC1=NN2C(=N)/C(=C\c3ccccc3Br)C(=O)N=C2S1	2	1
Cc1ccc(C#N)c(SCC(=O)c2ccccc2)n1	3	-3
CC1(C(=O)Nc2cccc(NS(C)(=O)=O)c2)CCN1Cc1cc2ccccc2o1 (stereo not drawn)	14	6

Record cards, from the list above.
CN(Cc1ccccc1)c1nc(-c2cccc(C(F)(F)F)c2)nc2ccccc12 is listed with NPYLR7 agonist = 5; NPYLR7 agonist max-min = 8
O=C(O)c1cccc(-c2nccnc2NCc2cccc([N+](=O)[O-])c2)c1 is listed with NPYLR7 agonist = -5; NPYLR7 agonist max-min = -11

Next structures
SMILES	NPYLR7 agonist	NPYLR7 agonist max-min
CN1[C@@H]2CCC[C@H]1CC(NC(=O)c1nn(C)c3ccccc13)C2 (stereo partly drawn)	-1	-6
CCOC(=O)C1CCCN(C(=O)c2cnn(CC(F)(F)F)c2-c2ccccc2)C1 (stereo not drawn)	11	16
O=C(c1ccc(Cl)s1)N(CCCn1ccnc1)c1nc2ccc(F)cc2s1	-12	-16
Cc1cccc(-c2ccnc3nc(N4CCN(C(=O)c5ccco5)CC4)nn23)c1	4	-1
O=C(CCN1C(=O)c2ccccc2C1=O)N1CCN(CC=Cc2ccccc2)CC1	-6	-9
Cc1ccc(S(=O)(=O)CCC(=O)OCc2ccc(C(=O)c3ccccc3)cc2)cc1	8	6
Cc1cc2n(n1)C(C)CC(C(F)(F)F)N2C(=O)c1cc(F)cc(F)c1 (stereo not drawn)	3	1
Nc1c(-c2ccccc2)cnc2c(-c3ccccc3)cnn12	3	1
CC(CNC(=O)C(C)N1CCN(C(=O)c2cccs2)CC1)c1ccccc1 (stereo not drawn)	7	4
COc1ccc(CCN(C)S(=O)(=O)c2ccc(OC)c(N3CCN(C(=O)Cc4cccs4)CC3)c2)cc1OC	0	-2
COc1ccc(-n2nc(C(C)(C)C)cc2NC(=O)CN(CC(C)C)C(=O)Nc2ccc(F)cc2F)cc1	21	25
CCC(CC)n1nc(C)cc1NC(=O)Cn1nc(C(F)F)cc1C	4	-3
Cc1cnccc1N1CCCN(C(=O)CC2CCc3ccccc32)CC1 (stereo not drawn)	2	-3
CCc1cc(N(C)CCc2ccc(OC)c(OC)c2)nc(SCc2ccc(C(=O)O)o2)n1	-10	-11
CN1CCN(Cc2ccc(CNC(=O)c3ccccc3O)cc2)CC1	1	3
CCn1nc(CC(C)C)cc1C(=O)N1CCCC(Nc2ccc(OC)cc2)C1 (stereo not drawn)	15	4
CCOC(=O)C1CCCN(C(=O)c2ccc(Nc3c(Oc4cccc(C(C)C)c4)cnn(-c4ccc(OC)cc4)c3=O)cc2)C1 (stereo not drawn)	16	16
Cn1cnnc1C1CCCN(C(=O)C(Cc2ccccc2)n2cnnn2)C1 (stereo not drawn)	0	4
C=CCC(NC(C)=O)C(=O)N1CCC[C@H]1C(=O)OCCc1ccc(OC)c(OC)c1 (stereo partly drawn)	3	-8
Cc1ccc(-c2ccc(C(=O)NC(C)c3cnn(C)c3)o2)cc1 (stereo not drawn)	5	3
O=C(COc1ccc(F)cc1)N1CCOC(c2ccccc2)C1 (stereo not drawn)	-6	-8
O=C(O)CN(CCOCCOCCN(CC(=O)O)CC(=O)O)CC(=O)O	-2	-23
CC1Cc2cc(S(N)(=O)=O)ccc2N1Cc1ccccc1F (stereo not drawn)	7	5
CN(C)c1ccc(NC(=O)C2CC2)cc1CN(C(=O)c1ccc(F)cc1)C1CC1	6	14
COc1ccc(C(=O)Nc2c(-c3ccccc3C)nc3cc(C)ccn23)cc1	-1	7

Among those listed so far, two have a tert-butyl group:
SMILES	NPYLR7 agonist	NPYLR7 agonist max-min
CC(C)C(=O)Nc1c2c(nn1C(C)(C)C)CSC2	-5	-9
COc1ccc(-n2nc(C(C)(C)C)cc2NC(=O)CN(CC(C)C)C(=O)Nc2ccc(F)cc2F)cc1	21	25

Other entries:
SMILES	NPYLR7 agonist	NPYLR7 agonist max-min
CCOC(=O)c1cc(C(O)(C(=O)OC)C(F)(F)F)c(N)o1 (stereo not drawn)	-1	-6
Cc1ccc(-c2cnnc(NCCC(c3ccccc3)c3ccco3)n2)o1 (stereo not drawn)	11	6
CC(=O)Nc1ccc(Nc2c(C)c(C)nc3c(-c4ccccc4)cnn23)cc1	6	3
COc1ccc(-c2cc(C(=O)Nc3ccccc3OC)c3cc(C)ccc3n2)cc1	-6	-9
Cc1ccsc1CN1CCC(=O)N(CC2CC2)C(C(C)C)C1 (stereo not drawn)	0	2
O=C(NCCNc1nc(-c2ccc(F)cc2)nc2ccccc12)C1CC1	8	17
O=C(NC1CCN(c2ccccc2C(=O)NCc2ccco2)CC1)c1cccc(Br)c1	0	8
CCn1c2c(=O)n(C)c(=O)n(C)c2n2c(-c3cc(Br)ccc3OC)nnc12	8	4
CCCCS(=O)(=O)N(C)CC(=O)Nc1cc(C)on1	3	-8
Clc1ccccc1-c1cc(C2CCN(CC3CCOC3)CC2)[nH]n1 (stereo not drawn)	-4	-4
COc1cc(Nc2ccc(NC(=O)CCc3ccccc3)cc2)nc(C)n1	12	3
COC(=O)c1ccc(COC(CN2CCN(C(=O)c3ccc(OC)c(F)c3)CC2)c2ccc(Cl)cc2)cc1 (stereo not drawn)	0	-2
